D2 agonist: activates the human D2 dopamine receptor; DiscoveRx PathHunter D2 beta-arrestin, luminescence, 90 min; 100% = 57 uM dopamine signal; activation, % (concentration not given with the values); hit rate 0.084% among 360,000; AID 624465; in the data active = activation above about 40%; inconclusive = about 15% to 40%; inactive = below about 15%; also: compound concentration not given in the record; the text of the record calls up to 30% inactive
Target sequence (P14416 whole entry, looked up): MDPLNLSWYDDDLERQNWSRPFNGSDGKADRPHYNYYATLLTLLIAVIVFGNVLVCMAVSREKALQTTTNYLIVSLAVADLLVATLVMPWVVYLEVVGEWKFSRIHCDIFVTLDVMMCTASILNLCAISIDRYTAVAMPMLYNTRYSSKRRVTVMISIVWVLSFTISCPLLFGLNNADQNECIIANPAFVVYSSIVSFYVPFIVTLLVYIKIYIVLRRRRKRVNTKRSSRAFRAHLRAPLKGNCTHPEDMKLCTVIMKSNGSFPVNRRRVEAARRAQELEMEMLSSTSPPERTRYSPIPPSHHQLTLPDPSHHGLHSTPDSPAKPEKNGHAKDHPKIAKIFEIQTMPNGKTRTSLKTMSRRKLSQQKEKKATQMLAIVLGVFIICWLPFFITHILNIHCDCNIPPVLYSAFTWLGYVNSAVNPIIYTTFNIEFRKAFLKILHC
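DiscoveRx PathHunter D2 beta-arrestin cells (2,100/well) attached overnight, then compound-stimulated 90 min at 37 C in HBSS/10 mM HEPES/0.1% Tween-20 buffer; beta-galactosidase complementation read by luminescence after 1 h at ambient temperature. Dopamine 57 uM final (EC100) as control.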
PINK1 modulator: changes PINK1 expression | PINK1 immunofluorescence, high-content cytometry, 24 h | Potency, µM (top dose mostly 76.6 µM), inactives show top-dose activation (PINK1 increase), usual class: activators | hit rate 0.2% among 410,000 | AID 624263; active = well fitted activation curve with a large enough effect; inconclusive = small, poorly fitted or top-dose-only effect; inactive = flat fitted curve, though single readings scatter; cell line not stated here;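 also: potency is read from the fitted curve at half-maximal effect; % of control where 0% means no effect; nearly all actives have a fitted effect of over 65% in size; a mitochondrial uncoupler was the plate control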
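Compound titrations (5 concentrations, 24 h) on a stable cell line; DMSO and CCCP controls. Endpoint: fixed-cell PINK1 immunofluorescence with mitochondrial, cell and nuclear markers, scanned by microplate cytometer.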
Six1-Eya2 inh: blocks human Six1 binding to Eya2. Q15475+O00167. AlphaScreen GST-Six1/His-Eya2 binding, biochemical; hits give low values; control for the full effect not named in the record. activity change, % (no concentration beside the values). hit rate 0.56% among 360,000. AID 651725; in the data active = activity change below about -65%; inconclusive = about -30% to -65%; inactive = above about -30%; also: % is scaled to controls: 0 for no effect and ±100 for the full control effect; compound concentration not given in the record
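GST-Six1 + His-Eya2 (5X stock: 250/500 nM); Tris pH 8.0, 300 mM NaCl, 0.05% BSA, 0.02% Tween 20; GSH donor/Ni acceptor beads; 1 h 37 °C dark; AlphaScreen readout.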
CtBP-E1A inh: blocks the CtBP interaction with E1A. AlphaScreen GST-E1A/His-CtBP binding, 1536-well; hits give low values; control for the full effect not named in the record. activity change, % (no concentration beside the values). hit rate 0.49% among 340,000. AID 651724; in the data active means activity change below about -65%; inconclusive means about -30% to -65%; inactive means above about -30%; also: % is scaled to controls: 0 for no effect and ±100 for the full control effect; compound concentration not given in the record
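Homogeneous bead-based format: GST-tagged E1A captured on glutathione donor beads, His-tagged CtBP on nickel acceptor beads; compounds precede bead addition by 2 h at 37 °C.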
TRPML1 ag: agonists of human TRPML1 channel | Q9GZU1 | hit rate 0.12% among 410,000 | activation, % (concentration not given with the values) | TRPML1-expressing cells, Ca2+ dye fluorescence, FDSS; host cell line not named in the record; reference of the full effect not given here | AID 624414; in the data active = activation above about 50%; inconclusive = about 30% to 50%; inactive = below about 30%; also: 0% is about no effect; the text of the record puts the active cut at 80%
Target sequence (Q9GZU1 whole entry, looked up): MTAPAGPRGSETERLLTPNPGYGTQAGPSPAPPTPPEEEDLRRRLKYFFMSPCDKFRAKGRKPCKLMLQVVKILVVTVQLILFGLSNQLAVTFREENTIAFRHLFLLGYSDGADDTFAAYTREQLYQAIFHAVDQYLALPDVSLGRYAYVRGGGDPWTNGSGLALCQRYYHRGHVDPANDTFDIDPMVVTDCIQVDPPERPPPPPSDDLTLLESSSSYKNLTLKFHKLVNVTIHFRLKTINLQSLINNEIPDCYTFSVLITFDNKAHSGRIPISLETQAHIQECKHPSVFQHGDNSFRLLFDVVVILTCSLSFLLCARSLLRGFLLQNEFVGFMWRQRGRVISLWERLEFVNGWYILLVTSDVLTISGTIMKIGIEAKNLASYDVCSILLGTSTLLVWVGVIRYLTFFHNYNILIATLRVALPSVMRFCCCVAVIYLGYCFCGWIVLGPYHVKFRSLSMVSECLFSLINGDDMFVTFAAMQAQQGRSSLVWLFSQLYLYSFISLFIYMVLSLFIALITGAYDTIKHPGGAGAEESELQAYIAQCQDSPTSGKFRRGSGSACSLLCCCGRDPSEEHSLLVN
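Tet-induced TRPML1-DL cells, 1,500 per well, cultured overnight, were loaded with a no-wash Ca2+ dye for 45–90 min. Calcium fluorescence was recorded on the FDSS for 110 s after compound addition, before the EC80 agonist (4 uM 54-4) was added.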
TRPML1 blocker: inhibitors of human TRPML1 channel. Q9GZU1. TRPML1-inducible cells, Ca2+ dye fluorescence, FDSS; hits give low values; inhibition of EC80 agonist-evoked calcium signal. activity change, negative = inhibition, % (concentration not given with the values). hit rate 0.02% among 390,000; in the data active means activity change below about -50%; inconclusive means about -30% to -50%; inactive means above about -30%;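 also: stimulus is agonist 54-4 at its EC80 concentration; % is scaled to controls: 0 for no effect and ±100 for the full control effect; compound concentration not given in the record; the text of the record puts the active cut at -80%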
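TRPML1-DL cells, Tet-induced overnight (~16 h, 37 °C) at 1,500 cells/well, were loaded with Ca8 no-wash dye plus quencher for 45-90 min at room temperature. Compounds were pinned during FDSS kinetic reading; agonist 54-4 at EC80 (4 uM final) then added.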
* marks the source's active call; other numbers are inactive results; ? = inconclusive; / = not tested or not shown; & = joins results of further samples; ! = repeats disagree; [ ] = dose if it differs, or a comment.

SMILES | D2 agonist | PINK1 modulator | Six1-Eya2 inh | CtBP-E1A inh | TRPML1 ag | TRPML1 blocker
Cc1ccc(N(CC(=O)NC2CCCC2)C(=O)c2c(C)noc2C)cc1C | -5.5 | 2.6% | 0 | 7 | -0.4 | 9
CCOc1ccc2[nH]c(SCC(=O)OC)c([N+](=O)[O-])c2c1 | -0.8 | 3.9% | 6 | 3 | 1.1 | 22
COc1cccc(Nc2cc(C)c3ccccc3n2)c1 | -5.5 | 6.1% | 2 | -4 | 2.4 | 8
C#Cc1ccc(CN2CCCC(C(=O)Nc3ccccc3Oc3cccnc3)C2)cc1 (stereo not drawn) | -0.4 | 0.5% | -3 | -7 | -0.9 | 8
COc1ccc(OCc2nnc(SCC(=O)N(C)Cc3ccccc3)n2N)cc1 | -3.6 | -0.2% | -4 | -8 | 0.2 | 4
CN(c1ccc(F)cc1)S(=O)(=O)c1ccc(Cl)c(C(=O)OCC(=O)NCc2ccco2)c1 | -2.9 | -0.2% | 3 | / | 2.4 | 13
COC(=O)C1=C(C)N(Cc2ccc(OC)c(OC)c2)C(=O)C1 | -0.8 | -0.2% | -3 | 3 | -0.3 | -28
O=c1c2ccccc2nc(SCc2cn3ccsc3n2)n1-c1ccc(F)cc1 | -2.6 | 1.3% | -5 | -9 | 1.4 | 26
Cc1ccc(C2=NN(CC(=O)NCCN(C)C)C(=O)CC2)cc1 | -1.7 | 2.0% | -9 | -1 | -1.2 | -7
CNC(=O)/C(C#N)=C\c1ccc(CNS(=O)(=O)c2ccc(Cl)cc2)o1 | 4.3 | 0.0% | -1 | / | -0.4 | -6
O=C1c2ccccc2C(Nc2ccc3c(c2)OCCO3)N1c1ccc(Cl)cn1 (stereo not drawn) | -0.7 | 0.6% | ? | -27 | 4.5 | 26
CC(=O)c1ccc(CCCCCCCCCC(=O)O)s1 | -3.2 | -0.8% | -2 | 3 | 0.7 | -18
N#CCCN1CCN(CCC#N)c2ccccc21 | 1.4 | -2.4% | -7 | -1 | -0.8 | -6
COc1ccccc1N1CCN(C(=O)C2CC2)CC1 | 5.6 | -0.5% | -1 | 0 | 0.1 | -9
O=c1cc(N2CCc3ccccc3C2)[nH]c(=O)n1-c1ccc(Br)cc1 | -0.7 | 0.7%[38.3 µM] | 8 | 3 | -0.4 | -9
O=C(O)c1ccc(NC(=S)NC(=O)c2cccc(COc3ccccc3)c2)cc1 | 2.2 | -0.2% | -7 | 1 | 3.1 | 10
Cc1ccc(CNC(=O)c2nccnc2C(=O)O)cc1 | -0.8 | 2.1% | -6 | 2 | 0.4 | 0
CCN(CC)S(=O)(=O)c1cc(NC(=O)COC(=O)C2CCC2)ccc1C | -1.4 | 1.5% | 6 | / | -1.3 | -10
C/C(=N\Nc1ccc(S(=O)(=O)N2CCCCC2)cn1)c1cccc(Br)c1 | -1.5 | 2.4% | 0 | / | 2.8 | -2
Cc1ccc(NC(=O)CSc2nc(-c3ccco3)nc3cc(=O)[nH]n23)c(Cl)c1 | -7.0 | 0.5% | 1 | -16 | 0.6 | 18
COc1ccc(NC(=O)c2cc(S(=O)(=O)N3CCOCC3)cn2C)cc1Cl | 2.2 | 2.1%&-0.8% | -2 | -2 | -0.2&0.2 | 26&11
CCc1ccc(-c2csc(NC(=O)C3CC(=O)N(c4ccc5c(c4)OCCO5)C3)n2)cc1 (stereo not drawn) | 1.5 | 2.5% | ? | 17 | 0.2 | -3
CC1(c2ccccc2)NC(=O)N(CC(=O)Nc2nnc(C3CC3)s2)C1=O (stereo not drawn) | 0.3 | 0.8% | 4 | 9 | 0.1 | 0
COc1cc(CN2CCC(C(=O)NCCC(C)C)CC2)ccc1OCc1ccccc1 | -4.2 | -0.6% | -4 | 1 | -0.1 | 3
Cc1cc(N2CCN(C)CC2)nc2ccc(NC(=O)Nc3cccc(Cl)c3)cc12 | / | -1.5% | / | / | 1.7 | ?
C/C(=N/NC(=O)c1ccoc1C)c1ccc(NC(=O)C2CCCC2)cc1 | -5.3 | -0.9% | 14 | -1 | 1.0 | 18
CCc1nc(N2CCN(C(=O)c3ccccc3)CC2)c2c3c(sc2n1)CCCC3 | 0.3 | 21% | -3 | 2 | 1.8 | 64
Cc1noc(NC(=O)c2c(-c3c(Cl)cccc3Cl)noc2C)c1[N+](=O)[O-] | 1.6 | 7.6% | 9 | -19 | 0.3 | 0
Cc1ccccc1NC(=O)Cc1nnc(SCC(=O)NC2CCCC2)n1C | -4.2 | 2.3% | 3 | 1 | 2.0 | 3
COc1ccc(C(=O)Nc2ccc(/C(C)=N/NC(=O)c3ccccc3O)cc2)cc1OC | -3.0 | 1.9% | 10 | 13 | 0.5 | 20
CCn1c2ccc(CC(=O)O)cc2c2cc(CC(=O)O)ccc21 | 2.2 | 5.7%[38.3 µM] | 0 | 8 | 2.1 | -8
O=C(O)c1ccc(NCCc2ccc(Cl)cc2)c([N+](=O)[O-])c1 | -3.0 | 0.1% | -10 | -1 | 0.2 | -6
O=C(NCCC1=CCCCC1)c1ccc2c(c1)N(Cc1ccccc1F)C(=O)c1ccccc1S2=O (stereo not drawn) | / | 0.6% | / | / | -0.1 | -4
O=C(Nc1cccs1)Nc1ccccc1Cl | -1.1 | 0.1% | -1 | -14 | -0.3 | 0
COc1cccc(-c2nn3c(=O)cc(CN4CCN(S(=O)(=O)c5ccc(C)cc5)CC4)nc3s2)c1 | / | 3.9% | / | / | -0.2 | -11
CC1CCCC(C)N1C(=O)CN1c2cccc3cccc(c23)S1(=O)=O (stereo not drawn) | 2.7 | 1.4% | 6 | 6 | -0.7 | 38
CN(Cc1nc(-c2ccncc2)no1)S(=O)(=O)c1ccc(Cl)cc1 | 5.4 | -1.3%[38.3 µM] | 0 | 13 | -0.6 | 10
Cc1ccc(CN2CCC(CNC(=O)c3cnn(-c4ccccc4Cl)c3C3CCN(C(=O)OC(C)(C)C)CC3)CC2)cc1 | / | -1.3% | / | / | 11 | -3
Cc1ccc(CN(C)C(=O)COC(=O)CSc2cc(C)c3ccccc3n2)cc1 | -5.2 | -0.4% | 5 | / | 1.3 | 37
O=C1CCCCC1Nc1ccc([N+](=O)[O-])cc1 (stereo not drawn) | -3.0 | 3.5% | 3 | 8 | 0.3 | 9
COc1ccc(-n2c(C)nnc2SCC(=O)N2C(C)CCCC2C)cc1 (stereo not drawn) | -2.5 | 1.1%[38.3 µM] | 1 | 10 | -0.5 | -14
C=C[C@@H]1c2ccccc2N(S(=O)(=O)c2ccc(C)cc2)[C@H](c2ccccc2)C1(C#N)C#N | -1.9 | 0.7% | -11 | 5 | 63*! | -21
CC(O)c1nc2c(c(=O)n(C)c(=O)n2C)n1C (stereo not drawn) | -3.5 | -0.7% | 2 | / | -0.1 | 12
CS(=O)(=O)c1ccc(C(=O)N(CCc2ccccc2)Cc2ccccc2)cc1 | -6.3 | -0.8% | -5 | -14 | 1.6 | 64
CCC1(C)Cc2nc3sc(C(=O)O)c(N)c3cc2CO1 (stereo not drawn) | -0.5 | -0.6% | -3 | -12 | 1.6 | 0
CCc1nn(CC(=O)N2CCN(c3ccc(Cl)cc3)CC2)c(=O)c2cc3occc3n12 | / | 0.4% | / | / | -1.3 | 6
Cc1cc(=O)[nH]c(NC(=O)Cc2ccccc2)n1 | -0.8 | 2.8% | 7 | 6 | 1.8 | -18
Oc1cccc(CN2CCCCC2)c1 | -3.3 | -0.2% | 10 | -4 | 0.7 | 15
CO/N=C/c1cc([N+](=O)[O-])ccc1Sc1ccc(C)cc1 | -3.8 | 3.7%[38.3 µM] | -8 | 26 | 0.8 | -1
O=C(CN1CCN(S(=O)(=O)c2ccccc2F)CC1)Nc1ccnn1C1CCCC1 | -0.4 | 4.3% | -3 | / | -0.9 | 31
CCCC(=O)N1CCCC(c2cc(C(=O)NCc3ccc(F)cc3)no2)C1 (stereo not drawn) | -1.8 | 0.1% | 2 | 4 | -1.3 | /
CSc1cccc(NC(=O)N2CCc3ccc(NC(=O)c4ccccn4)cc3C2)c1 | 4.3 | 1.6% | -22 | / | -0.1 | -3
C=CCC1(CC=C)CCCN1C(=O)CC1C(=O)NCCN1Cc1cccc(OC)c1 (stereo not drawn) | -0.3 | 1.2% | 2 | 5 | 0.2 | -6
COC(=O)COc1ccccc1C(=O)Nc1ccc(OC)cc1 | -4.0 | 1.5% | 5 | -8 | 2.3 | -7
COCCCNC(=O)CCc1nc2cccnc2n1Cc1ccc(OC)cc1 | -3.6 | -4.4%[38.3 µM] | -1 | -18 | 0.2 | -6
CCOC(=O)c1c(CSc2ccc(C)cc2)n(C)c2cc(Br)c(O)c(CN(C)C)c12 | 3.3 | 3.4% | ? | ? | 0.4 | 3
CN(C)c1ccc(CN(C(=O)COc2ccc(F)cc2)C2CCS(=O)(=O)C2)cc1 (stereo not drawn) | 0.4 | 1.2%[38.3 µM] | -8 | -9 | -0.2 | -4
O=C(NCc1nc2ccccc2[nH]1)C1=C[C@H](C2CC2)C[C@H](OCc2ccc(CO)cc2)O1 | -1.7 | 8.9% | -3 | -11 | -0.8 | 2
O=S1(=O)CCN(Cc2csc(-c3cccs3)n2)CC1 | -0.5 | 5.5% | 1 | 5 | 0.4 | 34
CN(C)c1ccc(CNC23CN4CN(CN(C4)C2)C3)cc1 | 0.6 | -0.2% | 1 | -1 | -0.2 | -5
Going on with the list:
SMILES | D2 agonist | PINK1 modulator | Six1-Eya2 inh | CtBP-E1A inh | TRPML1 ag | TRPML1 blocker
CC(=O)N(C(C)=O)c1ncn(C)c1S(=O)(=O)Nc1ccccc1 | -0.9 | -0.9% | 7 | 9 | 0.8 | 30
CCOc1ccc(NC(=O)C(Cc2ccccc2)NS(=O)(=O)c2ccc3c(c2)oc(=O)n3C)cc1 (stereo not drawn) | / | 4.5% | / | / | 1.9 | 13
CC(C)S(=O)(=O)N1CCCC(c2cc(C(=O)Nc3ccc(F)c(Cl)c3)no2)C1 (stereo not drawn) | 0.2 | -0.4% | -7 | 0 | 2.5 | 14
CCc1cc(=O)oc2cc(C)cc(OC(=O)c3ccco3)c12 | -2.0 | 1.5% | -7 | -5 | -0.7 | 39

Molecules shown so far containing an NH in an aromatic ring (five):
SMILES | D2 agonist | PINK1 modulator | Six1-Eya2 inh | CtBP-E1A inh | TRPML1 ag | TRPML1 blocker
CCOc1ccc2[nH]c(SCC(=O)OC)c([N+](=O)[O-])c2c1 | -0.8 | 3.9% | 6 | 3 | 1.1 | 22
O=c1cc(N2CCc3ccccc3C2)[nH]c(=O)n1-c1ccc(Br)cc1 | -0.7 | 0.7%[38.3 µM] | 8 | 3 | -0.4 | -9
Cc1ccc(NC(=O)CSc2nc(-c3ccco3)nc3cc(=O)[nH]n23)c(Cl)c1 | -7.0 | 0.5% | 1 | -16 | 0.6 | 18
Cc1cc(=O)[nH]c(NC(=O)Cc2ccccc2)n1 | -0.8 | 2.8% | 7 | 6 | 1.8 | -18
O=C(NCc1nc2ccccc2[nH]1)C1=C[C@H](C2CC2)C[C@H](OCc2ccc(CO)cc2)O1 | -1.7 | 8.9% | -3 | -11 | -0.8 | 2

Screens as filed in PubChem BioAssay.

Random draw from the library (roughly 1% active in at least one column).
